# StopGo RLuc: lowers the Renilla signal of an FMDV 2A StopGo reporter; HEK cells with a luciferase reporter of 2A StopGo recoding; Potency, µM (highest dose often 57.5 µM), inactives show top-dose signal change, negative = less light; 0.32% of 120,000 active; AID 1745857; active means well fitted falling curve with a large enough effect; inconclusive means small, poorly fitted or top-dose-only effect; inactive means no such curve, though single readings can be large or run the other way; further: nearly all actives have a fitted effect of over 55% in size; overnight with compound
# 2A firefly: FMDV 2A StopGo reporter, firefly signal. AID 1745856. Potency, µM (series often up to 57.5 µM), for inactives: at the highest dose signal change, negative = less light. HEK cells with a luciferase reporter of 2A StopGo recoding. 0.23% of 120,000 active; active = well fitted falling curve with a large enough effect; inconclusive = small, poorly fitted or top-dose-only effect; inactive = no such curve, though single readings can be large or run the other way; further: nearly all actives have a fitted effect of over 60% in size; overnight with compound
# * marks the source's active call; other numbers are inactive results; ? = inconclusive; & = joins results of further samples; [ ] = another dose, or the depositor's remark. On the % scale 0 is the no-effect control and ±100 the full control effect; potency means the concentration at half of the fitted maximal effect. This is a subset; count on the stated rates, not on these rows.
SMILES	StopGo RLuc	2A firefly
CC(C)(C)C(=O)/C=c1/[nH]c(=O)/c(=C/c2ccccc2C(F)(F)F)s1	?	-14%
CONC(=O)C(C)NC(=O)/C=C/c1ccccc1 (stereo not given)	18%	17%
O=C1CC(c2nc(-c3ccc(Cl)cc3)no2)CN1c1ccc2c(c1)OCCO2 (stereo not given)	-8%	-3%
Cc1ccc(-c2nc(N3CCCC(C)C3)c3ccccc3n2)cc1 (stereo not given)	-20%	-20%
O=C(NCCc1ccc(Cl)cc1)c1cccn1-c1nnc(N2CCCC2)s1	80%[activator]	-1%
Cc1c(C(=O)NCc2ccco2)oc2c1/C(=N/O)CCC2	8%	7%
COc1cc(-c2nc3nc[nH]n3c2Nc2ccc(C(C)C)cc2)ccc1O	14%	197%[activator]
CCCCc1nn2c(=O)cc(CSCC(=O)Nc3ccccc3C)nc2s1	4%	10%
CCc1c(C)sc(NC(=O)C2CCCC2)c1C#N	90%[activator]	65%[activator]
CCOC(=O)COc1ccc(CC)cc1C(=O)c1ccn2nc(-c3ccc(C)cc3)cc2n1	32%[activator]	24%
COc1ccc(OC)c(CCNC(=O)c2ccc(CS(=O)Cc3cccc(Cl)c3)o2)c1 (stereo not given)	15%	-20%
CCc1ccc2oc(C(=O)NCC(c3cccs3)N3CCCCC3)cc(=O)c2c1 (stereo not given)	-6%	-20%
COc1ccc(N(C)C(=O)c2oc(=O)c3ccccc3c2-c2ccc(C)cc2)c(OC)c1	-11%	?
FC(F)(F)c1cc(-c2cccs2)nc2sc3ccccc3c12	-4%	-1%
Cc1ccc(COc2ccc(CC(C)N)cc2)cc1 (stereo not given)	-4%	24%
Cc1cccc(N2CCN(S(=O)(=O)c3c(C)nc4scc(C)n4c3=O)CC2)c1C	-3%&-19%	?
CCc1ccc2oc(-c3ccc(C)c(NC(=O)c4ccc(C#N)cc4F)c3)nc2c1	2%	206%[activator]
CCc1ccc(NC(=O)CN2CCN(C3CCCCC3)C(=O)C2=O)cc1	-8%	-17%
NCCC(=O)Nc1cc(F)ccc1F	12%	8%
CC(C)OCc1ccccc1CNS(=O)(=O)c1ccc(F)c(F)c1	222%[activator]	9%
COc1cc(C2N=C(N)Nc3nc4ccccc4n32)ccc1OCCC(C)C (stereo not given)	-7%	-13%
COc1ccc(CNC(=O)COC(=O)c2ccc[nH]2)cc1	-8%	31%[activator]
Cc1ccc(S(=O)(=O)C(CNC(=O)C(=O)NCCc2ccccc2)c2cccs2)cc1 (stereo not given)	1%	-6%
COc1ccc2c(c1)c(C(=O)O)c(C)n2-c1ccc(I)cc1	9%	18%
COC(=O)C1CCCN1S(=O)(=O)c1ccc(F)cc1Cl (stereo not given)	-8%	-7%
CCC1(CC)NC(=O)N(Cc2coc(-c3ccc(Cl)cc3)n2)C1=O	-20%	7%
COc1cc(/C=C/c2nc(C#N)c(NCc3ccc4c(c3)OCO4)o2)cc(OC)c1OC	4%	4%
Cc1cc(C)cc(-c2nc(-c3ccc(Br)cc3)no2)c1	0%	34%[activator]
Cc1ccc2cccc(NC(=O)c3ccc(-c4ccc(Br)cc4)o3)c2n1	-3%	-10%
Cc1[nH]c2ccccc2c1C(=O)C(=O)NCc1ccncc1	-4%	-2%
O=C1CC(c2cccc(O)c2)c2ncn(-c3ccccc3F)c2N1 (stereo not given)	-2%	102%[activator]
COc1ccc(-c2noc(CSc3nnc(C)n3-c3ccc(OC)cc3)n2)cc1	-13%	-18%
O=C(CCNC(=O)C1CCCC1)NC1CC1	8%	-1%
COc1cccc(NC(=O)C(=O)NCC(c2cccnc2)N2CCN(c3ccccc3)CC2)c1 (stereo not given)	-8%	156%[activator]
O=C(O)CCN1CCN(CCO)CC1	-7%	-12%
COc1cc(NC(=O)N2CCC(CN3CCOCC3)CC2)cc(OC)c1OC	-5%	5%
Cc1oc(-c2cccs2)nc1CC(=O)Nc1ccccc1OCC(F)(F)F	14%	-6%
CC(C)(C)c1ccc(NC(=O)c2nccnc2N)cc1	8%	42%[activator]
Cc1c(-c2nsc(NC(=O)c3cccs3)n2)nnn1-c1ccc(Br)cc1	3%	33%[activator]
CC1=Nc2cc(C(=O)NC3CCCC3)ccc2Sc2ccc(Br)cc21	28%	-16%
CCc1ccccc1NC(=O)Cn1ccn(-c2cc(C)cc(C)c2)c(=O)c1=O	-14%	-20%
CCOc1ccc(N(C(=O)c2ccccc2F)S(=O)(=O)c2ccc3c(c2)n(C)c(=O)n3C)cc1	35%[activator]	-7%
Cc1ccc(CNC(=O)CCc2c(C)nn(-c3ccc(N4CCOCC4)nn3)c2C)cc1	11%	10%
CCn1c(=O)n(-c2ccc3c(c2)OCO3)c2nc(-c3cccc(OC)c3OC)nc(C(N)=O)c21	-10%	-18%
CCCNC(=O)C(C)NC(=O)Cc1c(C)nc2nc(N)nn2c1C (stereo not given)	3%	7%
COC(=O)c1ccc2c(c1)N(Cc1ccc(F)cc1)C(=O)c1ccccc1S2	-3%	-7%
CSc1cccc(NC(=O)Cn2c(=O)n(Cc3ccccc3)c(=O)c3sc4ccccc4c32)c1	-3%	-9%
CCOC(=O)C(Cc1ccc(C(F)(F)F)cc1)(NC(C)=O)C(=O)OCC	-7%	8%
COc1ccc(-c2cc(C(=O)O)c3ccccc3n2)c(OC)c1	-10%	14%
COc1cc(C(=O)Nc2ccc(N3CCCC3)nc2)cc2c1OCCO2	2%	36%[activator]
CC(=O)c1cc2c(cc1O)CCCC2	5%	-7%
COc1ccc(/C=C/C(=O)Oc2ccc(OC)cc2)cc1	-1%	17%
Cc1ccc(C(=O)NCCC2=CCCCC2)s1	12%	51%[activator]
COc1cc(C(=O)N2CCc3c([nH]c4ccccc34)C2c2ccc(C)cc2)cc(OC)c1OC (stereo not given)	-17%	?
COc1ccc(NC(=O)CSc2nc(C)cc(C)c2C(=O)Nc2ccccc2OC)cc1	17%	-11%
Oc1ccc(-n2nnnc2SCc2cc(Cl)c3c(c2)OCCCO3)cc1	-14%	-17%
Cn1c(=O)c2c(nc(NCCCN3CCOCC3)n2Cc2ccccc2)n(C)c1=O	-2%	4%
Cc1cc(C)c(NC(=O)CN2C(=O)c3cccnc3Oc3ccc(C)cc32)c(C)c1	-5%	-15%
COc1cc(C2c3c(-c4ccccc4O)n[nH]c3C(=O)N2CCO)ccc1OCc1ccccc1 (stereo not given)	-7%	-3%
COCCN(Cc1ccco1)C(=O)Cn1nc(Cc2cccnc2)c2ccccc2c1=O	1%	2%

# Continuation.
SMILES	StopGo RLuc	2A firefly
CC(=O)c1ccc(N2CCN(C(=O)Cc3c[nH]c4ccccc34)CC2)cc1	0%	-8%
COC(=O)C(C)Sc1nc2c([nH]c3ccccc32)c(=O)n1-c1ccc(OC)cc1 (stereo not given)	-12%	-3%
O=C(NCc1ccccc1Cl)C1CCN(S(=O)(=O)c2ccc3c(c2)CCCN3C(=O)C2CCC2)CC1	-4%	-27%
COC(=O)c1scc(-c2ccc(C)cc2)c1S(=O)(=O)Nc1ccc(NC(C)=O)cc1	30%[activator]	9%
O=C(Nc1cccc(CN2CCOC2=O)c1)N1CCN(c2ccccc2)CC1	6%	4%
O=C(CSc1nc2ccccc2s1)NC1CCSc2ccc(F)cc21 (stereo not given)	42%[activator]	33%[activator]
COc1ccc(CNC(=O)NOCc2ccccc2)cc1	4%	21%
Cc1ccc(C(=O)COC(=O)c2ccc(C(=O)c3ccccc3)cc2)c(C)c1	3%	-3%
COc1ccc(Cn2c(C(=O)O)c(CNCc3ccccc3F)c3ccc(OC)cc32)cc1	0%	35µM*
Cc1ccc(N/N=C/c2ccc(Cl)c(Cl)c2)cc1	6%	0%
COCCn1c2c(c(=O)[nH]c1=O)C(c1cccc3ccccc13)C1=C(N2)c2ccccc2C1=O (stereo not given)	60%[activator]	0%
O=C(Nc1cc(F)ccc1F)C1COc2ccccc2C1 (stereo not given)	3%	6%
CCOc1ccc(CCNC(=O)CSc2cc(=O)n(C)c3cc(Cl)ccc23)cc1OCC	-9%	-9%
COc1ccc(C2CC(=O)N(CC(=O)Nc3ccc(C(F)(F)F)cc3)c3ccccc3S2)cc1 (stereo not given)	6%	2%
CCCc1cc(=O)[nH]c(Nc2cc(Cl)cc(Cl)c2)n1	?	?

# 3 compounds already listed, arranged by formula weight, ascending:
SMILES	StopGo RLuc	2A firefly
COC(=O)C(C)Sc1nc2c([nH]c3ccccc32)c(=O)n1-c1ccc(OC)cc1 (stereo not given)	-12%	-3%
COc1ccc(C2CC(=O)N(CC(=O)Nc3ccc(C(F)(F)F)cc3)c3ccccc3S2)cc1 (stereo not given)	6%	2%
O=C(NCc1ccccc1Cl)C1CCN(S(=O)(=O)c2ccc3c(c2)CCCN3C(=O)C2CCC2)CC1	-4%	-27%

# The list continues.
SMILES	StopGo RLuc	2A firefly
CC(C)OCCCNC(=O)c1cc(-c2ccccc2)nc2ccccc12	11%	6%
COc1ccc(-c2cc3ncc4c(n3n2)-c2cc(F)ccc2OC4)cc1	2%	32%[activator]
Cc1ccc(-n2c(/C=C/c3cc(Br)cs3)nc3ccccc3c2=O)cc1	-6%	-12%
COC(=O)c1sc(NC(=O)[C@@H](NC(=O)c2ccccc2F)C(C)C)nc1C	-4%	45%[activator]
Cc1c(CCNS(=O)(=O)c2ccccc2)sc2nc(-c3ccc(Cl)cc3)nn12	?	?
N#Cc1cccnc1NCCc1cccc2cccnc12	21%	106%[activator]
O=S(=O)(c1ccc(Sc2nnnn2C2CCCC2)nc1)N1CCOCC1	-9%	-11%
Cc1ccc(S(=O)(=O)N(C)CC(=O)Nc2ncc(Cc3ccc(F)cc3)s2)cc1C	1%	12%
O=C(NCCc1c[nH]c2ccccc12)c1cc(Cl)cc(Cl)c1	-8%	4%
CS(=O)(=O)c1ccccc1C(=O)Nc1ccc(N2CCOCC2)cc1	-3%	13%
CSc1ccccc1C(=O)Nc1ccc2ccccc2c1	18%	183%[activator]
CCN(CC)CC(=O)c1c(C)n(C)c2ccc(OC)cc12	-12%	-13%
COc1ccc(Cl)cc1C(=O)Nc1ccc(-n2cnnn2)cc1	11%	21%
Cc1onc(-c2ccccc2)c1-c1nnc(CSc2nnnn2C(C)C)o1	27%	-7%
O=S(=O)(Oc1ccc2ccccc2c1)c1cccc2nsnc12	96%[activator]	47%[activator]
Cc1cc(C)n2ncc(-c3noc(C(=O)NCc4ccco4)n3)c2n1	1%	20%
COC(=O)c1ccc(NC(=O)c2cnn(-c3ccc(Cl)cc3)c2C2CCN(C(=O)OC(C)(C)C)CC2)cc1	-18%	-5%
Cc1ccc(NC(=O)Cn2cc(S(=O)(=O)Cc3ccc(F)cc3)c3ccccc32)cc1Cl	-7%	?
O=C(Nc1ccc(Cl)cc1)c1cc(S(=O)(=O)N2CCCc3ccccc32)ccc1F	-14%	-6%
Cc1cc(C(=O)N/N=C/c2cccs2)cs1	32%[activator]	8%
CCn1c(=O)c2cc(C(=O)NCc3ccc(F)cc3Cl)sc2c2ccccc21	-19%	0%
O=C(O)CC(NCc1ccccc1)c1ccccc1 (stereo not given)	-6%	-8%
CC(=O)N1CCOc2cc(S(=O)(=O)N(C)Cc3ccccc3)c(Cl)cc21	117%[activator]	-2%
COc1ccccc1NC(=O)N1CCC(CCc2ccc(C)cc2)CC1	-6%	-5%
CCOC(=O)CNc1ncnc2c1nnn2C	1%	-11%
CCc1ccccc1NC(=O)CSc1nc2c(c(=O)[nH]1)CN(Cc1ccccc1OC)CC2	-16%	-16%
COc1cccc2c1OC1(CCN(C(C)=O)CC1)N1N=C(c3ccc(OC(F)F)cc3)CC21 (stereo not given)	14%	127%[activator]
O=C(N/N=C/c1cccs1)c1ccccc1	18%	227%[activator]
O=C(CCC1CCCO1)NCC1CCCO1 (stereo not given)	2%	?
CCc1nnc2n1N(C(C)=O)C(c1ccc(C(C)(C)C)cc1)=C(C(C)=O)S2	?	?
Cc1ccc(-c2nc3ccccc3s2)cc1NC(=O)C(C)C	17%	74%[activator]
Cc1ccc(NC(=O)CSc2nnc3nc(C)cc(C)n23)cc1	11%	-11%
CCC(NC(=O)C1CC1)c1ccccc1 (stereo not given)	9%	6%
N#CC(Cc1cccnc1)C(=O)Nc1ccc(Cl)c(Cl)c1 (stereo not given)	134%[activator]	5%
O=C(Cn1cnc(S(=O)(=O)N2CCCC2)c1)Nc1ccc(OC(F)(F)F)cc1	-3%	-3%
N#CCCSc1sc(=S)sc1SCc1c(F)c(F)c(F)c(F)c1F	8%	-1%
Cc1ccc(C)c(CN2CCC(CNC(=O)c3cc4ccc5cccnc5c4[nH]3)CC2)c1	-13%	-18%
CCOC(CNC(=O)c1ccc(CNS(=O)(=O)c2ccc(F)cc2)cc1)OCC	2%	3%
Cc1ccc(OCCCn2c(-c3ccc(Cl)cc3)nc3ccccc3c2=O)cc1C	14%	23%

# Reprinted at random: 4 records from the list
SMILES	StopGo RLuc	2A firefly
Cc1ccc(-c2nc3ccccc3s2)cc1NC(=O)C(C)C	17%	74%[activator]
Cc1ccc(OCCCn2c(-c3ccc(Cl)cc3)nc3ccccc3c2=O)cc1C	14%	23%
Cc1ccc(NC(=O)CSc2nnc3nc(C)cc(C)n23)cc1	11%	-11%
CCC(NC(=O)C1CC1)c1ccccc1 (stereo not given)	9%	6%

# High-throughput results as filed in PubChem.
